BJeLR lethal – BJeLR cell viability loss | BJeLR (HRASV12) viability, CellTiter-Glo ATP luminescence, 48 h; reference of the scale not given here | inhibition, % (concentration not given with the values) | 300,000 tested, 0.17% active | AID 1554;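 active means replicate mean above 50%; inconclusive means above 50% but judged a plate artefact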;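 further: 50 nL library stock added to about 25 µL; numbers are from one replicate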
Sa ugtP lethal – compounds lethal to S. aureus RN4220 ugtP deletion mutant | OD600 growth, 16 h; some inactives read as strong as hits | growth inhibition, % (no concentration beside the values) | 330,000 tested, 0.54% active | AID 1259309;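 active means z-score under -3 and OD600 up to 0.15 on both plates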;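 further: plate controls were untreated wells for no effect and antibiotic for full effect; wells of about 80 µL received 100 nL stock; the first replicate is given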
Sa RN4220 lethal – kills Staphylococcus aureus RN4220. S. aureus RN4220 growth, OD600, 16 h. inhibition, % (concentration not given with the values). 330,000 tested, 0.33% active. AID 1259311;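 active means z-score of -3 or lower and OD600 up to 0.18 on both plates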;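 further: plate controls were untreated cells for no effect and reference antibiotic for full effect; stock transfer was 100 nL into about 80 µL; one replicate is shown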
PrP 5UTR inh – suppresses PrP 5' UTR mRNA reporter expression; cell-based PrP 5' UTR mRNA reporter, plate reader; inhibition, % (concentration not given with the values); 340,000 tested, 0.35% active; AID 488862;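 active means every replicate at 50% or more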;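 further: 0 = median of the neutral control wells; tested in H4 reporter cells; numbers are from one replicate; inactives centre near -14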
Bead autofluor – flagged as autofluorescent in microsphere protease counterscreen. 360,000 tested, 3.1% active. compound autofluorescence counterscreen, microsphere flow cytometry; active compounds read high. fluorescence intensity (no concentration beside the values);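 active means at least 3 SD above the mean of all compounds, about 16000 in these data; inconclusive means too few beads counted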;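 further: 100 nL of 1 mM stock went into each well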
Mtb hypoxia rep – inhibitors of hypoxia-regulated fluorescent reporter in Mycobacterium tuberculosis; M. tuberculosis hypoxia-regulated fluorescent reporter, fluorescence; fluorescence inhibition, % (concentration not given with the values); 300,000 tested, 0.1% active; AID 1159583;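 active means 35 to 45% if threefold the growth effect, above 45% if 1.5-fold the growth effect; inactive means the rest, general growth blockers included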;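 further: wells of about 50 µL received 100 nL stock; 0% = vehicle wells and 100% = reference inhibitor wells; whole bacteria with a GFP reporter of the hypoxia response; strong numbers were not always called active; many hits fall short of the cut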
Mtb hypoxia rep growth – second read-out of Mtb hypoxia rep, no call of its own (marks repeat the call); growth inhibition, %; measured here: M. tuberculosis growth (absorbance);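 0% = vehicle and 100% = reference antibiotic; read after six days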
The depositor's hits bear a star; ? = inconclusive; . = not tested or not shown.

SMILES	BJeLR lethal	Sa ugtP lethal	Sa RN4220 lethal	PrP 5UTR inh	Bead autofluor	Mtb hypoxia rep	Mtb hypoxia rep growth
Cc1ccc(S(=O)(=O)c2nc(-c3ccco3)oc2SCC(N)=O)cc1	2	3	2.7	-28	4062	4	-4
COc1ccc(CCNC(=O)c2cc(S(=O)(=O)N3CCOCC3)cn2C)cc1OC	4	17	19	0	4170	3	2
CCCCN1C(=O)/C(=C(/C#N)C(=O)N2CCCC2)c2ccccc21	0	5	4.1	-3	3557	4	-3
COc1ccc(CCN2C(=O)CC(C(N)=O)SC2=Nc2ccc(F)cc2)cc1OC (stereo not given)	4	6	1.8	-6	4396	9	14
NS(=O)(=O)c1ccc(-c2ccc(/C=N/NC(=O)c3ccc([N+](=O)[O-])cc3)o2)cc1	-16	.	.	-17	3994	.	.
NNC(=O)c1cc(C2CC2)nc2ccc(Br)cc12	11	8	-0.8	-22	4040	8	-2
COc1ccc(C2C3=C(NCCN=C3c3ccccc3)C(=O)N2c2ccccc2)c(OC)c1 (stereo not given)	-5	14	7.7	-16	4122	4	4
COC(=O)C1Cc2c([nH]c3ccccc23)C(C)N1 (stereo not given)	1	12	5.4	-22	7530	2	-1
Cc1cc(C(=O)NN=Cc2ccccn2)c2ccccc2n1	.	12	0.5	.	.	3	12
O=S(=O)(c1cccs1)N1CN(C2CCCC2)c2nc3ccccc3nc21	0	-1	3.4	.	.	-11	-2
Cc1ccc(CN2CCSc3ccc(C(=O)N4CCN(c5ncccn5)CC4)cc32)cc1	-4	39	3.8	-2	22029*	-10	-2
Cc1ccc(CN2CC(C(=O)Nc3ccc(F)c([N+](=O)[O-])c3)CC2=O)cc1 (stereo not given)	-4	-3	1.7	-18	3332	-8	4
COc1ccc(-n2ccnc2SCC(=O)Nc2ccc(OC)cc2OC)cc1	9	8	2.0	-13	2642	.	.
CS(=O)(=O)N(Cc1ccccc1)c1ccc(C(=O)NN=C2CCCCCC2)cc1	-4	-5	-7.3	-31	8779	-7	-19
S=C(N/N=C1\C2CN3CCN(C2)CC1(c1ccccc1)C3)Nc1ccccc1	0	.	.	-25	2305	.	.
Cc1noc(C)c1C(=O)OCC(=O)Nc1ccccc1SCC#N	.	3	3.0	-11	?	5	10
COc1ccc(C(=O)NC2CCN(Cc3ccccc3)C2)cc1S(=O)(=O)N1CCOCC1 (stereo not given)	.	-1	-1.8	-8	9151	5	-4
COc1ccc(CNC(=O)CN(Cc2ccccc2Cl)C(=O)c2csnn2)cc1	-8	2	-0.5	-22	3561	0	3
N=C1/C(=C\c2ccc(OC(=O)c3ccco3)cc2)C(=O)N=C2SC=NN12	4	11	16	-2	1959	1	7
COc1ccccc1C(CCNS(=O)(=O)c1ccc(C)cc1)c1ccco1 (stereo not given)	-8	13	8.4	-24	2379	11	3
COc1ccc(C=NNC(=S)Nc2ccccc2)cc1COc1ccccc1F	.	7	4.5	.	.	4	2
O=C(Cn1cnc2ccccc2c1=O)NCC(=O)N1CCOCC1	-6	-11	-0.9	-7	2173	-3	0
C=CCNC(=O)CSc1nnc(-c2cccs2)o1	4	-1	2.6	-13	2089	.	.
Cc1ccc(-c2cc(-c3c(C)nn(C)c(=O)c3N)[nH]n2)cc1	-3	7	4.4	-29	5489	2	4
CC(C)=CCc1c(O)cc2c(c1O)C(=O)CC(c1ccccc1)O2 (stereo not given)	-13	-5	-1.2	-15	5590	.	.
CC1=C(C(=O)Nc2ccc(C)cc2C)C(c2cccc(Cl)c2)n2nc(C(=O)OC(C)C)nc2N1 (stereo not given)	11	1	1.6	-15	2625	5	4
O=C(O)CCN(Cc1ccccc1)S(=O)(=O)c1ccc(Cl)cc1F	8	14	19	-18	4373	15	14
OC(COc1ccc(CN2CCCCO2)cc1)CN1CCCCC1 (stereo not given)	-5	6	3.4	-9	4553	-6	-1
COc1cccc(-c2csc(N3CCN(C(=S)Nc4ccccc4OC)CC3)n2)c1	-10	-10	11	-13	9442	13	3
COc1ccccc1C(=O)C1CCCN(Cc2cccc(OCCO)c2)C1 (stereo not given)	-1	7	4.8	-34	4158	-1	1
COc1ccccc1-n1c(O)c(C=NCCN2CCNCC2)c(=O)[nH]c1=O	9	7	5.6	-27	6994	9	6
COc1ccc(C2CC(c3ccccc3C)n3nc(N)nc3N2)cc1 (stereo not given)	-12	2	-2.4	-12	4771	.	.
O=C(NNC(=O)c1ccccc1[N+](=O)[O-])c1ccccc1[N+](=O)[O-]	.	10	3.9	-7	3137	-1	1
O=C(c1ccc(S(=O)(=O)Cc2ccccc2Cl)c([N+](=O)[O-])c1)N1CCOCC1	9	3	5.2	-5	5551	7	10
Cc1cc(C)c(S(=O)(=O)NCC23C=CC(O2)C2C(=O)N(c4ccccc4)C(=O)C23)c(C)c1 (stereo not given)	6	1	4.9	-15	3691	18	6
CCOC(=O)CC(=O)CSc1nc(-c2cccnc2)cc(C)c1C#N	0	1	0.7	-8	2700	.	.
COc1cc2c(cc1OC)C(c1ccc(C)cc1)NC(=O)C2 (stereo not given)	9	-3	1.1	-83	3555	10	9
Cc1noc(/C=C/N(C)C)c1S(=O)(=O)N1CCCC(C(=O)Nc2ccccc2F)C1 (stereo not given)	4	8	4.5	3	4249	1	-6
O=C(NCCOc1ccccc1F)c1cccc(S(=O)(=O)N2CCN(c3ccccc3)CC2)c1	6	-7	-1.0	-12	.	-4	-3
O=C(CN(Cc1ccco1)C(=O)CCC(=O)Nc1ccccn1)NCc1ccccc1	3	4	2.0	-21	4362	-15	-2
O=C1c2ccccc2CN1C(CO)Cc1ccccc1 (stereo not given)	2	-3	1.1	-16	3929	10	4
CC(NC(=O)c1ccc(NC(=O)CC2SC(N3CCCC3)=NC2=O)cc1)c1ccc(F)cc1 (stereo not given)	.	5	-1.4	-1	9090	-1	5
OC(COc1ccccc1)CN1CCN(C(c2ccccc2)c2ccccc2)CC1 (stereo not given)	-2	0	-8.5	0	3055	10	-3
COC(=O)c1ccccc1NC(=O)CSc1nc(Nc2ccccc2)nc(N2CCOCC2)n1	3	-13	0.5	0	5157	6	-3
O=C(NCc1csc(-c2cccs2)n1)c1ccsc1	8	5	8.3	-21	4080	3	6
O=C(NN=Cc1ccccc1C(=O)O)c1ccccc1Br	.	18	18	.	.	-1	9
O=C(O)CCc1ccc(-c2cccs2)n1-c1ccc(C(=O)O)cc1	-2	.	.	-18	5859	.	.
CN(CC(=O)Nc1cccc2ccccc12)c1ccc(S(=O)(=O)N2CCOCC2)cn1	14	-6	0.7	-3	2131	.	.
CCc1nc2ccc(C(=O)N3CCN(c4cccc(Cl)c4)CC3)cc2nc1CC	-8	-21	-5.9	0	5752	15	9
CN1CCN(c2oc(/C=C/c3ccccc3)nc2C#N)CC1	-16	3	6.8	-20	4575	-12	-5
Cc1cc(C)c(OCCN2CC(C)OC(C)C2)c(Br)c1 (stereo not given)	-6	3	8.7	-3	4139	3	10
COCCn1c(C(=O)N2CCCC2)cc2c1CC1CN(C(=O)c3ccccc3)[C@@](Cc3ccc(F)cc3)(C(=O)OC)C21 (stereo not given in full)	.	6	4.3	.	.	4	2
CCN(CC)C(=O)CSc1nnc(-c2cnccn2)n1-c1ccc(C)cc1	6	3	4.0	-25	23151*	-1	1
Cc1cnn(-c2cc(N/N=C/c3ccccc3)ncn2)c1	-3	.	.	-5	7750	.	.
COc1cccc(-c2nnc(SCc3nc4ccccc4s3)n2C)c1	-2	-6	-0.9	-28	2537	.	.
COC(=O)c1ccc(C)c(NC(=O)CSc2nc3[nH]c(=O)cc(O)c3s2)c1	.	12	6.3	-17	8080	9	11
C=CCN1CN(S(=O)(=O)c2cccs2)c2nc3ccccc3nc21	.	3	1.9	-2	11479	0	9
CN=c1scc(-c2ccccc2F)n1N=Cc1ccc[nH]1	.	6	-0.1	.	.	0	0
Cc1cc(C)cc(NC(=O)COC(=O)CCC2CCCC2)c1	.	14	7.7	-3	2911	4	-4
COc1ccc(S(=O)(=O)NC2CCCCC2)cc1C(=O)N1CCCCC1	2	12	6.1	2	3949	0	-1

One compound at a time, as listed above.
Listed for Cc1cc(C)cc(NC(=O)COC(=O)CCC2CCCC2)c1 → BJeLR lethal = .; Sa ugtP lethal = 14; Sa RN4220 lethal = 7.7; PrP 5UTR inh = -3; Bead autofluor = 2911; Mtb hypoxia rep = 4; Mtb hypoxia rep growth = -4
Listed for CN1CCN(c2oc(/C=C/c3ccccc3)nc2C#N)CC1 → BJeLR lethal = -16; Sa ugtP lethal = 3; Sa RN4220 lethal = 6.8; PrP 5UTR inh = -20; Bead autofluor = 4575; Mtb hypoxia rep = -12; Mtb hypoxia rep growth = -5

(continued)
SMILES	BJeLR lethal	Sa ugtP lethal	Sa RN4220 lethal	PrP 5UTR inh	Bead autofluor	Mtb hypoxia rep	Mtb hypoxia rep growth
CCOC(=O)c1sc(NC(=O)c2cccnc2)c(C#N)c1C	10	85*	74	-9	2399	1	1
COc1ccc(OCC(=O)N2CCN(Cc3ccc4c(c3)OCO4)CC2)cc1	16	0	8.2	-6	4628	11	7
CCOC(=O)c1c(P(=O)(N2CCOCC2)N2CCOCC2)noc1N	2	2	-1.2	-19	4876	9	8
O=C(c1ccccc1F)N1CCN(S(=O)(=O)c2ccc(S(=O)(=O)N3CCCCC3)cc2)CC1	.	-2	2.4	-4	12173	-1	4
CCOc1ccc(C(=O)Nc2c3c(nn2-c2cccc(Cl)c2)CS(=O)C3)cc1 (stereo not given)	-15	-1	1.7	-13	22721*	8	14
COc1ccc(S(=O)(=O)Nc2cccc(-n3cnnn3)c2)cc1OC	2	1	-0.4	-18	5531	3	4
COc1ccccc1/C=C/C(=O)Nc1ccc2c(c1)OCCO2	-2	-12	-2.9	-62	8808	-1	2
CCn1c(CSc2nnc(-c3ccncc3)n2C)nc2cc(C(=O)O)ccc21	6	3	5.7	-13	3361	6	7
C=CCn1c(C23CC4CC(CC(C4)C2)C3)n[nH]c1=S	-2	1	1.2	5	4011	14	8
CCc1ccccc1NC(=S)N(CCN(C)C)C(C)c1ccccn1 (stereo not given)	19	3	1.9	-8	11943	2	3
N#CC(Sc1ccccn1)c1ccc(Cl)cc1Cl (stereo not given)	5	7	4.4	-10	4876	-6	12
O=C(CNc1ccc2c(c1)OCO2)NN=Cc1cn(Cc2ccccc2)c2ccccc12	.	-26	-6.9	.	.	0	-5
CCN(CC)S(=O)(=O)c1cccc(C(=O)NCC2CCCO2)c1 (stereo not given)	-16	2	2.9	-13	5861	8	14
Cc1ccccc1N1C(=O)CSC1=C(C#N)C#N	-8	4	7.0	-6	4277	4	-1
CC1(NC(=O)N2CCOCC2)CCS(=O)(=O)C1 (stereo not given)	9	-1	4.0	-16	10526	0	-1
COC(C[C@H](O)C[C@@H](O)[C@H](C)OCc1ccccc1)OC	3	.	.	-18	3909	.	.
Cc1ccc(C(=O)N[C@H](C(=O)NC2CCCCCCC2)C(C)C)cc1	.	1	3.2	-28	3594	5	-1
O=C(NC1CCSc2ccccc21)c1cccc([N+](=O)[O-])c1 (stereo not given)	10	13	4.2	-9	5568	6	-19
NC(=O)Cn1nc([N+](=O)[O-])nc1Oc1ccccc1C(=O)N1CCOCC1	-3	6	13	-24	3774	10	6
COc1ccc(Cl)cc1S(=O)(=O)NCc1cccs1	-4	3	5.8	-13	2786	.	.
COCCNC(=O)NC1(C(F)(F)F)Oc2ccc(Cl)cc2O1 (stereo not given)	-11	10	3.8	-8	10005	6	8
CCOC(=O)c1ccccc1Oc1c(F)c(F)nc(NCCO)c1F	2	2	9.9	-31	10674	-1	2
COc1cc2c(cc1OC)C(c1ccccc1C(F)(F)F)CC(=O)N2 (stereo not given)	-7	.	.	-5	3209	.	.
CCN(CC)S(=O)(=O)c1ccc(-c2cn3ccc(C)cc3n2)cc1	-2	-2	2.1	-72	3319	5	-2
CCN(CC)c1cc(C)c2cc(NC(=O)c3cccs3)ccc2n1	11	2	5.4	-22	4105	-3	2
Cc1nc(-c2noc(-c3ccc(Cl)cc3)n2)c(C(F)(F)F)o1	3	4	1.3	-21	5487	11	1

Four compounds out of the list, arranged by formula weight, lowest first.
SMILES	BJeLR lethal	Sa ugtP lethal	Sa RN4220 lethal	PrP 5UTR inh	Bead autofluor	Mtb hypoxia rep	Mtb hypoxia rep growth
Cc1nc(-c2noc(-c3ccc(Cl)cc3)n2)c(C(F)(F)F)o1	3	4	1.3	-21	5487	11	1
COCCNC(=O)NC1(C(F)(F)F)Oc2ccc(Cl)cc2O1 (stereo not given)	-11	10	3.8	-8	10005	6	8
CCN(CC)S(=O)(=O)c1ccc(-c2cn3ccc(C)cc3n2)cc1	-2	-2	2.1	-72	3319	5	-2
CCOC(=O)c1ccccc1Oc1c(F)c(F)nc(NCCO)c1F	2	2	9.9	-31	10674	-1	2
